BJeLR lethal – MLPCN primary cell-based screen for lethality selective to Ras in HRASV12 cells. BJeLR (HRASV12) viability, CellTiter-Glo ATP luminescence, 48 h; reference of the scale not given here. inhibition, % (concentration not given with the values). hit rate 0.17% among 300,000. AID 1554, 2009;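 active = replicate mean above 50%; inconclusive = above 50% but judged a plate artefact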;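 note: 50 nL library stock added to about 25 µL; numbers are from one replicate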
PrP 5UTR inh – inhibition of PrP 5' UTR reporter expression | hit rate 0.35% among 340,000 | inhibition, % (test concentration not listed) | AID 488862, 2010 | cell-based PrP 5' UTR mRNA reporter, plate reader;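 active = every replicate at 50% or more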;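 note: 0 = median of the neutral control wells; tested in H4 reporter cells; numbers are from one replicate; inactives centre near -14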
Mtb hypoxia inh – PubChem AID 1159583; M. tuberculosis hypoxia-regulated fluorescent reporter, fluorescence; fluorescence inhibition, % (concentration not given with the values); hit rate 0.1% among 300,000;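 active = 35 to 45% if threefold the growth effect, above 45% if 1.5-fold the growth effect; inactive = the rest, general growth blockers included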;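 note: wells of about 50 µL received 100 nL stock; 0% = vehicle wells and 100% = reference inhibitor wells; whole bacteria with a GFP reporter of the hypoxia response; strong numbers were not always called active; many hits fall short of the cut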
RN4220 kill – growth inhibition of S. aureus RN4220, primary screen, OD600 | 16 h | AID 1259311, 2017 | hit rate 0.33% among 330,000 | inhibition, % (no concentration beside the values);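 active = z-score of -3 or lower and OD600 up to 0.18 on both plates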;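 note: plate controls were untreated cells for no effect and reference antibiotic for full effect; stock transfer was 100 nL into about 80 µL; one replicate is shown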
Sa ugtP lethal – growth inhibition of ugtP-null S. aureus, primary screen, RN4220 ugtP deletion, OD600; 16 h; some inactives read as strong as hits; growth inhibition, % (concentration not given with the values); hit rate 0.54% among 330,000; AID 1259309, 2017;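 active = z-score under -3 and OD600 up to 0.15 on both plates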;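 note: plate controls were untreated wells for no effect and antibiotic for full effect; wells of about 80 µL received 100 nL stock; the first replicate is given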
Bead autofluor – counter-screen for toxin protease inhibitors: compound fluorescence; compound autofluorescence counterscreen, microsphere flow cytometry; hits give high values; fluorescence intensity (no concentration beside the values); hit rate 3.1% among 360,000; AID 624483;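 active = at least 3 SD above the mean of all compounds, about 16000 in these data; inconclusive = too few beads counted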;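 note: 100 nL of 1 mM stock went into each well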
Mtb hypoxia inh growth – second read-out of Mtb hypoxia inh, no call of its own (marks repeat the call); growth inhibition, %; measured here: M. tuberculosis growth (absorbance);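 0% = vehicle and 100% = reference antibiotic; read after six days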
* = called active by the depositor.

For CCCCNC(=O)C1CCN(C/C(C)=C/c2ccccc2)CC1 the results were BJeLR lethal -9, PrP 5UTR inh -9, Mtb hypoxia inh 3, RN4220 kill 6.0, Sa ugtP lethal 7, Bead autofluor 4458 and Mtb hypoxia inh growth 1.
For CCCCn1c(N)c(N(Cc2ccccc2OC)C(=O)CN2C(=O)NC3(CCCC3)C2=O)c(=O)[nH]c1=O the results were BJeLR lethal 4, PrP 5UTR inh -7, Mtb hypoxia inh 7, RN4220 kill 0.9, Sa ugtP lethal -1, Bead autofluor 5966 and Mtb hypoxia inh growth 8.
For Cc1cc(C)c(NC(=O)Cn2c(=O)n(Cc3ccco3)c(=O)c3ccccc32)c(C)c1 the results were BJeLR lethal -7, PrP 5UTR inh 3, RN4220 kill 3.4, Sa ugtP lethal 5 and Bead autofluor 2107.
For COc1ccc(C(C)=O)cc1Cn1nnc(-c2ccccc2Br)n1 the results were BJeLR lethal 2, PrP 5UTR inh -20, Mtb hypoxia inh 8, RN4220 kill -0.6, Sa ugtP lethal 8, Bead autofluor 3652 and Mtb hypoxia inh growth -3.
For O=C(c1ccccc1)N1CCC(O)(c2cccnc2)CC1 the results were BJeLR lethal 17, PrP 5UTR inh -16, Mtb hypoxia inh -1, RN4220 kill 4.2, Sa ugtP lethal 9, Bead autofluor 2276 and Mtb hypoxia inh growth 1.
O=C(Oc1cc(=O)oc2c1c(=O)n1c3c(cccc23)CC1)c1ccccc1 was read as BJeLR lethal -9, PrP 5UTR inh -23, Mtb hypoxia inh 2, RN4220 kill 34, Sa ugtP lethal 82*, Bead autofluor 3913 and Mtb hypoxia inh growth 2.
For N=c1sccn1CC(=O)NCc1ccc(Cl)cc1Cl the results were BJeLR lethal -1, PrP 5UTR inh -20, Mtb hypoxia inh 3, RN4220 kill 3.1, Sa ugtP lethal -5, Bead autofluor 2445 and Mtb hypoxia inh growth 4.
Screening Cc1cccc(-c2cc(C(=O)Nc3cccnc3)c3ccccc3n2)c1 returned BJeLR lethal -2, PrP 5UTR inh -10, Mtb hypoxia inh -10, RN4220 kill -3.6, Sa ugtP lethal -6, Bead autofluor inconclusive and Mtb hypoxia inh growth 6.
For Cc1cccc(NC(=O)c2ccc3c(c2)OCCO3)c1 the results were BJeLR lethal 16, PrP 5UTR inh -5, Mtb hypoxia inh 3, RN4220 kill 8.5, Sa ugtP lethal 4, Bead autofluor 5343 and Mtb hypoxia inh growth 2.
`CCOC(=O)c1sc2nc(C)nc(Nc3ccc(OC)cc3)c2c1C` gave BJeLR lethal 4, PrP 5UTR inh -24, Mtb hypoxia inh 3, RN4220 kill -1.9, Sa ugtP lethal -2, Bead autofluor 4670 and Mtb hypoxia inh growth -2.
For O=C(O)c1cccc(-n2cc(-c3cccc(C(F)(F)F)c3)cn2)c1 the results were BJeLR lethal 14, PrP 5UTR inh -44 and Bead autofluor 3889.
`NC(=O)CSc1nnc(NC(=O)c2ccc(Br)o2)s1` gave BJeLR lethal 17, PrP 5UTR inh -12, Mtb hypoxia inh 0, RN4220 kill -10, Sa ugtP lethal 11, Bead autofluor 5930 and Mtb hypoxia inh growth 8.
`CC(C)C(NC(=O)c1ccccc1)C(=O)N1CCCCCC1` (centres undefined) gave BJeLR lethal -8, PrP 5UTR inh -12, Mtb hypoxia inh 5, RN4220 kill 5.7, Sa ugtP lethal 9, Bead autofluor 5536 and Mtb hypoxia inh growth 0.
For CCCCn1c(=N)c(S(=O)(=O)c2ccc(Br)cc2)cc2c(=O)n3cccc(C)c3nc21 the results were BJeLR lethal -7, PrP 5UTR inh -6, Mtb hypoxia inh 5, RN4220 kill 1.0, Sa ugtP lethal 5, Bead autofluor 5054 and Mtb hypoxia inh growth 3.
Screening Cc1cc(C(=O)COC(=O)c2ccc(O)cc2)c(C)n1-c1ccccc1F returned BJeLR lethal 20, PrP 5UTR inh -5, Mtb hypoxia inh 4, RN4220 kill 9.3, Sa ugtP lethal 7, Bead autofluor 4684 and Mtb hypoxia inh growth -1.
For Cc1ccc2sc(N(CCCN(C)C)C(=O)CCS(=O)(=O)c3ccccc3)nc2c1C the results were BJeLR lethal 10, PrP 5UTR inh 5 and Bead autofluor 5949.
Screening COc1ccc(Cl)cc1C(=O)Nc1cc(=O)n(C)c(=O)n1C returned BJeLR lethal -11, PrP 5UTR inh -14, Mtb hypoxia inh 3, RN4220 kill 5.2, Sa ugtP lethal -7, Bead autofluor 5069 and Mtb hypoxia inh growth 1.
CN(C(=O)Cc1csc(-c2ccccc2)n1)c1c(N)n(Cc2ccccc2)c(=O)[nH]c1=O was read as BJeLR lethal -1, PrP 5UTR inh -3, Mtb hypoxia inh -8, RN4220 kill -2.9, Sa ugtP lethal -5 and Mtb hypoxia inh growth -17.
For Cn1ccnc1SCC(=O)NC12CC3CC(CC(C3)C1)C2 the results were BJeLR lethal -5, PrP 5UTR inh -29, Mtb hypoxia inh 9, RN4220 kill 2.3, Sa ugtP lethal 4, Bead autofluor 9132 and Mtb hypoxia inh growth 1.
CCOC(=O)c1csc(NC(=O)c2cc3ccccc3o2)n1 was read as BJeLR lethal 2, PrP 5UTR inh -48, Mtb hypoxia inh 5, RN4220 kill 7.4, Sa ugtP lethal -10, Bead autofluor 4518 and Mtb hypoxia inh growth 8.
Screening Cc1nnc(SCC2=C(C(=O)O)N3C(=O)C(NC(=O)c4cc(F)c(F)cc4Cl)C3SC2)s1 (centres undefined) returned BJeLR lethal 4, PrP 5UTR inh -29, Mtb hypoxia inh 11, RN4220 kill 100*, Sa ugtP lethal 100*, Bead autofluor 4317 and Mtb hypoxia inh growth 14.
COc1ccc(-c2coc3cc(O)ccc3c2=O)cc1O was read as BJeLR lethal -9, PrP 5UTR inh -56, RN4220 kill 6.5, Sa ugtP lethal 12 and Bead autofluor 5659.
Screening Cc1cc(C)c2cc(C#N)c(N3CCCN(S(=O)(=O)c4ccccc4)CC3)nc2c1 returned BJeLR lethal -3, Mtb hypoxia inh -1, RN4220 kill 2.5, Sa ugtP lethal 0 and Mtb hypoxia inh growth 4.
Screening Cc1cc(=O)oc(C)c1C(=O)NCc1ccccn1 returned BJeLR lethal -14, PrP 5UTR inh -21, Mtb hypoxia inh 3, RN4220 kill 1.0, Sa ugtP lethal 1, Bead autofluor 20680* and Mtb hypoxia inh growth 3.
O=[N+]([O-])c1ccc(Cl)cc1Sc1nc2ccccc2o1 was read as BJeLR lethal -5, PrP 5UTR inh -37, Mtb hypoxia inh 1, RN4220 kill 23, Sa ugtP lethal 21, Bead autofluor 8146 and Mtb hypoxia inh growth -1.
For CCOC(=O)COc1ccccc1/C=N/O the results were BJeLR lethal 4, PrP 5UTR inh -11 and Bead autofluor 2517.
For CC(C)(C)c1nn2cnnc2n(/N=C/c2ccccc2)c1=O the results were BJeLR lethal 5, PrP 5UTR inh -9 and Bead autofluor 2526.
Screening CN(Cc1cccnc1)Cc1c(C(=O)N2CCc3ccccc3C2)nc2ccc(Cl)cn12 returned BJeLR lethal -16, PrP 5UTR inh -2, Mtb hypoxia inh -3, RN4220 kill 6.0, Sa ugtP lethal 4, Bead autofluor 2471 and Mtb hypoxia inh growth 8.
Cc1cc(C)n(-c2ccc(C(=O)OCC(=O)Nc3ccc(S(=O)(=O)N4CCCCC4)cc3)cc2)n1 was read as BJeLR lethal -8, PrP 5UTR inh -8, Mtb hypoxia inh 11, RN4220 kill 5.9, Sa ugtP lethal -8, Bead autofluor 2579 and Mtb hypoxia inh growth -3.
Screening O=C(NCCc1ccc(Cl)cc1)c1cc(-c2ccncc2)nc2ccccc12 returned BJeLR lethal 2, PrP 5UTR inh -12, Mtb hypoxia inh 4, RN4220 kill -1.3, Sa ugtP lethal 8, Bead autofluor 4313 and Mtb hypoxia inh growth 3.
Screening O=C1CC(=C2c3ccccc3-c3ccccc32)C(=O)N1CCCCN1CCN(c2ccccc2)CC1 returned BJeLR lethal 3, PrP 5UTR inh -20, Mtb hypoxia inh -11, RN4220 kill -9.0, Sa ugtP lethal -15, Bead autofluor 10441 and Mtb hypoxia inh growth 13.
Cc1nc(S(=O)(=O)NC2CCCCC2)c(C#N)c(C)c1Cl was read as BJeLR lethal 5, PrP 5UTR inh -21, RN4220 kill 4.3, Sa ugtP lethal 0 and Bead autofluor 4124.
For COc1cccc(CNC(=O)CCC2CCCN(C(=O)c3ccc(OC)c(F)c3)C2)c1 (centres undefined) the results were BJeLR lethal 3, PrP 5UTR inh -32, Mtb hypoxia inh 3, RN4220 kill 3.7, Sa ugtP lethal 7, Bead autofluor 4427 and Mtb hypoxia inh growth -10.
Screening Cc1ccc(CNC(=O)CN2C(=O)CSc3ccc(S(=O)(=O)N4CCC(C)CC4)cc32)cc1 returned BJeLR lethal -9, PrP 5UTR inh -8, Mtb hypoxia inh 9, RN4220 kill 3.5, Sa ugtP lethal -1, Bead autofluor 5065 and Mtb hypoxia inh growth -1.
O=C(COc1ccc(-c2nnco2)cc1)NCc1ccccc1Cl was read as BJeLR lethal -9, PrP 5UTR inh -13, Mtb hypoxia inh 12, RN4220 kill 6.5, Sa ugtP lethal 5, Bead autofluor 2546 and Mtb hypoxia inh growth 8.
For CC(C)(C)c1c(Cl)c(O)c(-c2ccccc2)c(=O)n1-c1ccccc1 the results were BJeLR lethal -4, PrP 5UTR inh -9, Mtb hypoxia inh 9, RN4220 kill -5.4, Sa ugtP lethal 20, Bead autofluor 4165 and Mtb hypoxia inh growth -2.
`COC(=O)C1=C(c2ccc(F)cc2OCc2ccccc2)CC2CCC1N2C(=O)NCCCOC(C)C` (centres undefined) gave Mtb hypoxia inh 9, RN4220 kill 5.7, Sa ugtP lethal 16 and Mtb hypoxia inh growth -5.
Screening N#Cc1nc(-c2ccco2)oc1NCc1cccnc1 returned BJeLR lethal 4, PrP 5UTR inh 5, Mtb hypoxia inh -13, RN4220 kill 0.4, Sa ugtP lethal -3, Bead autofluor 8639 and Mtb hypoxia inh growth -3.
For O=C(CN1CCN(Cc2ccc(Cl)cc2)CC1)NN=Cc1cccs1 the results were Mtb hypoxia inh 7, RN4220 kill -0.8, Sa ugtP lethal 0 and Mtb hypoxia inh growth -3.
Cc1cc(C(=O)Nn2c(C)nc3ccccc3c2=O)ccc1[N+](=O)[O-] was read as BJeLR lethal -3, PrP 5UTR inh -34, Mtb hypoxia inh 9, RN4220 kill 7.9, Sa ugtP lethal 4, Bead autofluor 3381 and Mtb hypoxia inh growth 3.
For COc1ccc(CCNS(=O)(=O)c2ccc([N+](=O)[O-])cc2)cc1OC the results were BJeLR lethal 0, PrP 5UTR inh -18, Mtb hypoxia inh 14, RN4220 kill 12, Sa ugtP lethal 8, Bead autofluor 3702 and Mtb hypoxia inh growth 7.
CCn1c(=O)cc(SCC(=O)N2CCCCC2)c2ccccc21 was read as BJeLR lethal -2, PrP 5UTR inh -27, Mtb hypoxia inh 15, RN4220 kill -5.3, Sa ugtP lethal -5, Bead autofluor 10228 and Mtb hypoxia inh growth 0.
O=C(O)c1cn(-c2ccc(N3CCCC3)c(F)c2)c2c(F)c(F)c(F)cc2c1=O was read as BJeLR lethal 4, PrP 5UTR inh -12, Mtb hypoxia inh -5, RN4220 kill 8.4, Sa ugtP lethal 100*, Bead autofluor 4804 and Mtb hypoxia inh growth -4.
For COc1ccc(CNc2nc(NCc3ccc(OC)cc3)n(C(=O)c3ccncc3)n2)cc1 the results were BJeLR lethal 3, PrP 5UTR inh 2, Mtb hypoxia inh 2, RN4220 kill 1.6, Sa ugtP lethal 12, Bead autofluor 3544 and Mtb hypoxia inh growth -3.
Screening Cc1ccc(CNC(=O)COC(=O)CSc2ccc(Br)cc2C)cc1 returned BJeLR lethal -15, PrP 5UTR inh -16, Mtb hypoxia inh -1, RN4220 kill 1.7, Sa ugtP lethal 9, Bead autofluor 9507 and Mtb hypoxia inh growth 4.

3 records drawn at random from those above, as already listed:
For COc1ccc(CCNS(=O)(=O)c2ccc([N+](=O)[O-])cc2)cc1OC the results were BJeLR lethal 0, PrP 5UTR inh -18, Mtb hypoxia inh 14, RN4220 kill 12, Sa ugtP lethal 8, Bead autofluor 3702 and Mtb hypoxia inh growth 7.
O=C(O)c1cn(-c2ccc(N3CCCC3)c(F)c2)c2c(F)c(F)c(F)cc2c1=O was read as BJeLR lethal 4, PrP 5UTR inh -12, Mtb hypoxia inh -5, RN4220 kill 8.4, Sa ugtP lethal 100*, Bead autofluor 4804 and Mtb hypoxia inh growth -4.
For COc1ccc(CNc2nc(NCc3ccc(OC)cc3)n(C(=O)c3ccncc3)n2)cc1 the results were BJeLR lethal 3, PrP 5UTR inh 2, Mtb hypoxia inh 2, RN4220 kill 1.6, Sa ugtP lethal 12, Bead autofluor 3544 and Mtb hypoxia inh growth -3.

Compound activity deposited in PubChem by several laboratories.
